PINK1 modulator – modulators of PINK1 expression; PINK1 immunofluorescence, high-content cytometry, 24 h; Potency, µM (titrated, usually from 76.6 µM), inactives show at the top dose activation (PINK1 increase), actives largely listed as activators; 410,000 tested, 0.2% active; AID 624263; active = well fitted activation curve with a large enough effect; inconclusive = small, poorly fitted or top-dose-only effect; inactive = flat fitted curve, though single readings scatter; cell line not stated here;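 note: potency is the fitted concentration of half-maximal effect; % of control where 0% means no effect; nearly all actives have a fitted effect of over 65% in size; a mitochondrial uncoupler was the plate control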
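Compound titrations (5 concentrations, 24 h) on a stable cell line; DMSO and CCCP controls. Endpoint: fixed-cell PINK1 immunofluorescence with mitochondrial, cell and nuclear markers, scanned by microplate cytometer.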
Sfp inh – Sfp phosphopantetheinyl transferase inhibition; Q9F4F7; Biochemical Sfp PPTase activity, qHTS; Potency, µM, for the others: max response, negative = inhibition, usual class: inhibitors; 310,000 tested, 3.5% active; AID 1490; active = well fitted inhibition curve with a large enough effect; inconclusive = small, poorly fitted or top-dose-only effect, or another doubt; inactive = no such curve, though single readings can be large or run the other way;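 note: the enzyme is Sfp with the accession as filed and its product quenches rhodamine fluorescence; potency is the fitted concentration of half-maximal effect; 0% = enzyme reaction without inhibitor and -100% = no enzyme wells; top concentration of the series not given in the record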
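Fluorescence-quenching assay: 15 nM Sfp-PPTase preincubated 15 min at room temperature with compound, then 5 uM rhodamine-CoA and 12.5 uM BHQ-2-labelled YbbR peptide added. Fluorescence (ex 525/em 598 nm) read at start and after 30 min; difference gives rate.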
TRPML1 ag – agonists of human TRPML1 channel. Q9GZU1. TRPML1-expressing cells, Ca2+ dye fluorescence, FDSS; host cell line not named in the record; reference of the full effect not given here. activation, % (concentration not given with the values). 410,000 tested, 0.12% active; in the data active = activation above about 50%; inconclusive = about 30% to 50%; inactive = below about 30%; note: 0% is about no effect; the text of the record puts the active cut at 80%
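Tetracycline-induced TRPML1-DL cells are seeded and incubated overnight before loading with a no-wash Ca2+ dye and quencher. Agonist activity is taken from the 110 s fluorescence read following compound pin-transfer on an FDSS, before EC80 54-4 challenge.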
Menin-MLL FL inh – inhibitors of human menin-MLL interaction, wild-type MLL peptide; Fluorescence polarization, fluorescein-MLL peptide displacement from menin; FP activity change, % at 61.4 µM; 290,000 tested, under 10 active; AID 1766; inconclusive = falling polarisation curve, or a change in total fluorescence; inactive = total fluorescence flat and polarisation flat or rising; no compound was filed as active; the % refers to the polarisation; negative = inhibition;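 note: % of control where 0% means no effect; inhibitors lower the polarisation; unlabelled MLL peptide was the positive control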
ClpP mod – qHTS Assay for Activators of ClpP; purified B. subtilis ClpP, FRET peptide cleavage, 20 min; Potency, µM (doses to about 57.5 µM), inactives show at the top dose activity change, negative = active; 340,000 tested, 1.9% active; AID 651965, 2013; active = well fitted falling curve with a large enough effect; inconclusive = small, poorly fitted or top-dose-only effect; inactive = no such curve, though single readings can be large or run the other way; note: potency is the fitted concentration of half-maximal effect; the source files actives as falling curves though it sought activators and does not explain the sign; nearly all actives have a fitted effect of over 65% in size; many hits overshoot -100%
Target sequence (P80244 whole entry, looked up): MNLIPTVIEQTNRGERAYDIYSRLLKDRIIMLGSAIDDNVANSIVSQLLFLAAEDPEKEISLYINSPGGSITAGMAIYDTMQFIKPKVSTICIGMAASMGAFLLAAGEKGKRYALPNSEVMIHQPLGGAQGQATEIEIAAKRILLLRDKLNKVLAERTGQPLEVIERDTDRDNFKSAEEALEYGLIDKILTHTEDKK
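Buffer: 100 mM Tris/HCl pH8, 100 mM KCl, 0.05% low protease BSA, 2.5% glycerol, 0.01% Tween-20. ClpP 10 microg/mL final; 20 min RT; delta FRET normalized to ADEP and DMSO controls.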
TRPV1 potentiator – human TRPV1 potentiation. 320,000 tested, 0.02% active. potentiation, % at 8.33 µM. TRPV1-expressing cells, Fluo-8 calcium influx, capsaicin EC20 potentiation; host cell line not named in the record; control for the full effect not named in the record; active means potentiation above 80%; inconclusive means 30% to 80%; inactive means below 30%; note: 0% is about no effect
Target sequence (Q8NER1 whole entry, looked up): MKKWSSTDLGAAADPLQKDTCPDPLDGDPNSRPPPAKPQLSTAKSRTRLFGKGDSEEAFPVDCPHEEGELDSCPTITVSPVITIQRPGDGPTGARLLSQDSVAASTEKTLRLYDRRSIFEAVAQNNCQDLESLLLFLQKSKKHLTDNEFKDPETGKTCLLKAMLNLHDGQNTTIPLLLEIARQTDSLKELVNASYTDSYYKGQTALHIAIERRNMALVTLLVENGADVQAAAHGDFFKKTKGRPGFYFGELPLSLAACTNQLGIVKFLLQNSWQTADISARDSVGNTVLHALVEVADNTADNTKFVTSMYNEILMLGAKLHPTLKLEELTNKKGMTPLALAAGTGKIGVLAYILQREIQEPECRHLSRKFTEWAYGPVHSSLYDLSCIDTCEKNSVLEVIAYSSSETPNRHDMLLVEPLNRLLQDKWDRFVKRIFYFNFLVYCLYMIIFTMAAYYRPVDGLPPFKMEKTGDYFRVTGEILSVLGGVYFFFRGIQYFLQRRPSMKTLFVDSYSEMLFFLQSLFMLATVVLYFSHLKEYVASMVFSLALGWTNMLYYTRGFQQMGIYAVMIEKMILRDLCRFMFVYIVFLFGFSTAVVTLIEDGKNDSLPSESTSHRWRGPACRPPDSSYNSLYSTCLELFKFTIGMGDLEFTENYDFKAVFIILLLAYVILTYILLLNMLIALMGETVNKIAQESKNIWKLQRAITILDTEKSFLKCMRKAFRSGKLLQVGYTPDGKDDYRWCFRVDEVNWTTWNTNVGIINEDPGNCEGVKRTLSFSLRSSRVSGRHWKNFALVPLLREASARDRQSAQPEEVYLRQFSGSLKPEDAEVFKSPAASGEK
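Cells expressing TRPV1 were dye-loaded with Fluo-8 and read kinetically: 10 s baseline, 3 min after compound (agonist portion), then 2 min after EC20 capsaicin (allosteric enhancer portion). Calcium-bound dye fluorescence at 480/520 nm.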
TRPML1 inh – blocks the human TRPML1 channel. Q9GZU1. activity change, negative = inhibition, % (no concentration beside the values). 390,000 tested, 0.02% active. TRPML1-inducible cells, Ca2+ dye fluorescence, FDSS; hits give low values; inhibition of EC80 agonist-evoked calcium signal; in the data active means activity change below about -50%; inconclusive means about -30% to -50%; inactive means above about -30%;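 note: stimulus is agonist 54-4 at its EC80 concentration; % is set by controls: 0 for no effect and ±100 for the full control effect; compound concentration not given in the record; the text of the record puts the active cut at -80%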
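Calcium fluorescence in TRPML1-DL cells induced overnight with Tet: a 110 s read after compound pin addition, then a 110 s antagonist read after challenge with 54-4 at 4 uM final (EC80).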
* hit, by the source's call; [ ] = remark or other dose.

Screening O=C(Nc1ccccc1)Nc1ccc(C(=O)N2CCCC2)cc1 returned PINK1 modulator -0.7%, Sfp inh 12%, TRPML1 ag 2.0, Menin-MLL FL inh -3.5, TRPV1 potentiator 12 and TRPML1 inh 11.
Screening CNC(=S)Nc1cccc([N+](=O)[O-])c1 returned PINK1 modulator -1.0%, Sfp inh 13%, TRPML1 ag 0.3, Menin-MLL FL inh -1.1, TRPV1 potentiator -4 and TRPML1 inh 2.
For CCc1nnc(NC(=O)C(C)C)s1 the results were PINK1 modulator -2.2%, Sfp inh -1%, TRPML1 ag 3.2, Menin-MLL FL inh -3.7, ClpP mod -0.3%, TRPV1 potentiator -33 and TRPML1 inh 16.
`O=c1c(-c2ccccc2)nc2cnc(N3CCNCC3)nc2n1Cc1cccs1` gave PINK1 modulator 7.2%, Sfp inh -3% and Menin-MLL FL inh -0.6.
COc1ccc(C(O)(CCc2ccccc2)CCN2CCCCC2)cc1 (centres undefined) was read as PINK1 modulator -0.2%, Sfp inh -3%, TRPML1 ag 0.7, Menin-MLL FL inh 0.6, TRPV1 potentiator -11 and TRPML1 inh 8.
`COc1ccccc1N1C(=O)c2cccnc2C1=O` gave PINK1 modulator 4.4%, Sfp inh 17%, Menin-MLL FL inh 3.8, ClpP mod 1.7% and TRPV1 potentiator 7.
For O=C(O)CSc1nnc(NC(=O)c2ccc3c(c2)OCO3)s1 the results were PINK1 modulator 0.3%, Sfp inh 15%, TRPML1 ag -0.6, Menin-MLL FL inh -1.4, TRPV1 potentiator 21 and TRPML1 inh 20.
COC(OC)c1ccnc(SCc2ccccc2Cl)n1 was read as PINK1 modulator 8.6%, Sfp inh -4%, TRPML1 ag 0.2, Menin-MLL FL inh 0.8, ClpP mod -0.9% and TRPML1 inh -11.
`CSCCC(NC(=O)c1ccc(Cl)cc1Cl)C(=O)NNC(=O)c1csc(N2CCOCC2)n1` (centres undefined) gave PINK1 modulator 3.0%, Sfp inh -1%, TRPML1 ag 0.9, Menin-MLL FL inh 0.4, ClpP mod -14%, TRPV1 potentiator 5 and TRPML1 inh 26.
Screening Cc1ccc(C(=O)NNC(=O)c2cc(C)nc3ccccc23)cc1 returned PINK1 modulator 3.5%, TRPML1 ag 2.4, ClpP mod -4.2%, TRPV1 potentiator 2 and TRPML1 inh 6.
Screening Cc1ccc(NC(=O)c2ccc(F)cc2F)cc1NS(C)(=O)=O returned PINK1 modulator 2.4%, Sfp inh 4%, TRPML1 ag -0.7, Menin-MLL FL inh -0.1, ClpP mod -0.3%, TRPV1 potentiator -8 and TRPML1 inh -1.
For CN(Cc1ccc(F)cc1)C(=O)COc1ccc2ccccc2c1 the results were PINK1 modulator 0.3%, Sfp inh 1%, TRPML1 ag -0.7, Menin-MLL FL inh -1.6, TRPV1 potentiator 8 and TRPML1 inh 29.
Cc1cc(C(=O)OCC(=O)Nc2ccc(F)c(F)c2)c(C)o1 was read as PINK1 modulator 13%[38.3 µM], Sfp inh 0%, TRPML1 ag -0.9, Menin-MLL FL inh -2.4, ClpP mod 0.1%, TRPV1 potentiator -16 and TRPML1 inh -5.
For COc1cccc2cc(NC(=O)C3CCCCC3)c(=O)oc12 the results were PINK1 modulator 4.9%[38.3 µM], Sfp inh 18%, TRPML1 ag 0.6, Menin-MLL FL inh 2.8, ClpP mod 35µM*, TRPV1 potentiator 13 and TRPML1 inh 22.
For O=C(Nc1ccccc1)c1cccc(S(=O)(=O)NC2CCCC2)c1 the results were PINK1 modulator 2.6%, Sfp inh 5%, TRPML1 ag -0.2, ClpP mod -0.7%, TRPV1 potentiator -1 and TRPML1 inh 43.

For convenience, part of the list above:
For CCc1nnc(NC(=O)C(C)C)s1 the results were PINK1 modulator -2.2%, Sfp inh -1%, TRPML1 ag 3.2, Menin-MLL FL inh -3.7, ClpP mod -0.3%, TRPV1 potentiator -33 and TRPML1 inh 16.
`O=c1c(-c2ccccc2)nc2cnc(N3CCNCC3)nc2n1Cc1cccs1` gave PINK1 modulator 7.2%, Sfp inh -3% and Menin-MLL FL inh -0.6.
COc1ccc(C(O)(CCc2ccccc2)CCN2CCCCC2)cc1 (centres undefined) was read as PINK1 modulator -0.2%, Sfp inh -3%, TRPML1 ag 0.7, Menin-MLL FL inh 0.6, TRPV1 potentiator -11 and TRPML1 inh 8.
`COc1ccccc1N1C(=O)c2cccnc2C1=O` gave PINK1 modulator 4.4%, Sfp inh 17%, Menin-MLL FL inh 3.8, ClpP mod 1.7% and TRPV1 potentiator 7.

Later entries
Cn1c(SCc2cccc([N+](=O)[O-])c2)nc2c(c1=O)SCC2 was read as PINK1 modulator -0.1%, Sfp inh -2%, TRPML1 ag 0.0, Menin-MLL FL inh -2.9, ClpP mod 2.1%, TRPV1 potentiator 1 and TRPML1 inh -3.
`COc1ccc(CC(N)c2csc(Nc3cc(Oc4ccccc4)ncn3)n2)cc1` (centres undefined) gave PINK1 modulator -1.0%, TRPML1 ag 0.8 and ClpP mod -2.5%.
O=C(CSCc1nc2scc(-c3cccs3)c2c(=O)[nH]1)Nc1ccccn1 was read as PINK1 modulator -0.5%, Sfp inh 6%, TRPML1 ag 0.3, ClpP mod -4.8%, TRPV1 potentiator 11 and TRPML1 inh -20.
Screening O=C(Oc1ccccc1N1C(=O)C2CCCCC2C1=O)c1ccccc1F (centres undefined) returned PINK1 modulator 5.9%, Sfp inh -1%, TRPML1 ag 0.7, Menin-MLL FL inh 1.7, ClpP mod -0.8%, TRPV1 potentiator -2 and TRPML1 inh -11.
For C=CCN1C(=O)C(C)(C)Nc2ccccc21 the results were PINK1 modulator 2.9%, Sfp inh 7%, TRPML1 ag -0.6, Menin-MLL FL inh 4.9, ClpP mod -2.0%, TRPV1 potentiator 7 and TRPML1 inh 28.
Screening Fc1ccc(Nc2nc(-c3cccc(Cl)c3)c3c(n2)-c2ccccc2OC3)c(F)c1 returned PINK1 modulator 1.1%, TRPML1 ag -0.1, ClpP mod -16% and TRPML1 inh -8.
COc1ccc2c(CNCCc3ccccc3C)c(C(=O)O)n(Cc3ccccc3C)c2c1 was read as PINK1 modulator -1.8%, TRPML1 ag 0.2, ClpP mod -15% and TRPML1 inh -11.
Screening Cc1ccc(OCCCC(=O)Nc2cc(Cl)ccc2-n2cncn2)cc1 returned PINK1 modulator -0.9%, TRPML1 ag 0.5, ClpP mod -0.8%, TRPV1 potentiator 4 and TRPML1 inh 0.
For COc1ccc(S(=O)(=O)NCC2CCCN(C(=O)CCSC)C2)cc1 (centres undefined) the results were PINK1 modulator 0.6%, Sfp inh 22%, TRPML1 ag -0.1, Menin-MLL FL inh 0.3, ClpP mod 0.7%, TRPV1 potentiator -11 and TRPML1 inh -13.
For COc1ccc(NC(=O)c2cc(-c3ccccc3)nc3c2c(C)nn3-c2ccccc2)c(OC)c1 the results were PINK1 modulator inconclusive, Sfp inh -36%, TRPML1 ag -0.6, Menin-MLL FL inh 5.7, ClpP mod 235%, TRPV1 potentiator 4 and TRPML1 inh -17.
For COc1ccc(-c2c(-c3ccc(OC)cc3O)nc(C)nc2C(F)(F)F)cc1 the results were PINK1 modulator 2.3%, Sfp inh 7%, TRPML1 ag 1.5, Menin-MLL FL inh -2.4, ClpP mod -3.5%, TRPV1 potentiator -13 and TRPML1 inh 0.
Screening Cc1cc(F)ccc1NC(=O)c1ccc(NS(=O)(=O)c2cc(C(C)(C)C)ccc2C)cc1 returned PINK1 modulator -0.8%, Sfp inh -5%, TRPML1 ag 0.1, Menin-MLL FL inh 1.2, ClpP mod -6.0%, TRPV1 potentiator 8 and TRPML1 inh 0.
COC(=O)c1ccc(Oc2c(C)oc3c(CN4CCN(C)CC4)c(O)ccc3c2=O)cc1 was read as PINK1 modulator 3.9%[38.3 µM], Sfp inh 17%, TRPML1 ag 3.4, Menin-MLL FL inh 1.0, ClpP mod 4.7%, TRPV1 potentiator 0 and TRPML1 inh 39.
`O=C(CSc1nnc2[nH]c(=O)cc(-c3ccccc3)n12)Nc1ccccc1C(F)(F)F` gave PINK1 modulator -13%, TRPML1 ag 0.0, ClpP mod 4.6% and TRPML1 inh -3.
For COc1cc(C(=S)N2CCCCC2)ccc1OCC(=O)N1CCCC1 the results were PINK1 modulator 3.1%, Sfp inh -1%, TRPML1 ag -0.3, Menin-MLL FL inh 1.7, ClpP mod 0.1%, TRPV1 potentiator -6 and TRPML1 inh -5.
For Cc1cnc(CNc2cc(-c3ccccc3C)ncn2)cn1 the results were PINK1 modulator 1.0%, Sfp inh -1% and Menin-MLL FL inh -6.3.
CCOC(=O)N1CCC2(CC1)C(C#N)=C(N)OC1=C2C(=O)CCC1 was read as PINK1 modulator 1.6%, Sfp inh 10%, TRPML1 ag 0.2, Menin-MLL FL inh 9.9, TRPV1 potentiator 1 and TRPML1 inh -4.
Screening O=S(=O)(c1ccccc1)N(c1ccccc1)S(=O)(=O)c1ccccc1 returned PINK1 modulator -2.9%, TRPML1 ag 2.1, ClpP mod 1.9% and TRPML1 inh 19.
For COc1ccccc1C(=O)N1c2ccccc2Sc2ccccc21 the results were PINK1 modulator -2.4%, Sfp inh -3%, TRPML1 ag 3.2, ClpP mod -17%, TRPV1 potentiator -11 and TRPML1 inh -24.
For COc1cc(C2Nc3c(C)cc(C)cc3-c3cc(C)nn32)cc(OC)c1O (centres undefined) the results were PINK1 modulator 3.4%, TRPML1 ag -0.6, ClpP mod 4.0% and TRPML1 inh -19.
Screening CCO[C@H]1OC(C(N)=O)=C[C@@H](C2CCCCC2)[C@@H]1CCCO returned PINK1 modulator -0.9%, Sfp inh 4%, TRPML1 ag -0.6, Menin-MLL FL inh 0.6, ClpP mod -0.8%, TRPV1 potentiator 30 and TRPML1 inh -4.
For COc1ccc2[nH]c(C(=O)N3CCC(CO)(Cc4cccc(C(F)(F)F)c4)CC3)c(C)c2c1 the results were PINK1 modulator 8.1%, Sfp inh 16%, Menin-MLL FL inh 0.7, ClpP mod -17% and TRPV1 potentiator -14.
CCOC(=O)c1ccc(Oc2nc(SC)nc(N(C)C)n2)cc1 was read as PINK1 modulator 1.4%, Sfp inh -9%, TRPML1 ag 0.1, Menin-MLL FL inh 1.3, ClpP mod 9.7%, TRPV1 potentiator 9 and TRPML1 inh -8.
